Bioassay records as filed in PubChem BioAssay.
miR-21 reporter: miR-21 reporter, rising signal; HeLa miR-21 FLuc reporter, luciferase, 48 h; Potency, µM (top dose mostly 38.3 µM), for inactives: top-dose reporter change, positive = more light; 340,000 tested, under 10 active; AID 2288; active = well fitted rising curve with a large enough effect; inconclusive = small, poorly fitted or top-dose-only effect; inactive = no such curve, though single readings can be large or run the other way;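 also: % of control where 0% means no effect; miR-21 action dims this reporter so a rising signal means less miR-21 action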
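Using DMEM plus 10% FBS, HeLa miR-21-FLuc cells are incubated with test compounds (final up to about 40uM) for 48 hours; firefly luciferase signal is then imaged following reagent-mediated lysis.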
Starred values were filed as active, the others as inactive; ? = inconclusive.

SMILES	miR-21 reporter
CCOc1ccc(NC(=O)c2ccc(-c3ccccc3)s2)cc1	-20%
CCn1cc2nc(SCc3cccc(C(F)(F)F)c3)n(Cc3ccc(OC)cc3)c(=O)c2n1	12%
Cc1cc(NC(=O)CSc2nc(-c3ccccc3C)nc3c2c(=O)n(C)c(=O)n3C)no1	1%
COc1ccc(CCNC(=O)c2cn(C)c3ccc(S(=O)(=O)N(C)C4CCCCC4)cc3c2=O)cc1OC	-13%
CN(C)c1cccc(C(=O)Nc2nc3ccc(S(=O)(=O)NC(C)(C)C)cc3s2)c1	27%
Cc1c2cnn(CC(=O)NCc3ccc(Cl)cc3)c(=O)c2c(C)n1Cc1ccc(F)cc1	6%
COC(=O)c1cc(NC(=O)[C@H](CCS(C)(=O)=O)N2Cc3ccccc3C2=O)cc(C(=O)OC)c1	0%
COc1ccc(C(c2c(O)cc(C)n(Cc3ccco3)c2=O)N2CCN(c3ccccc3)CC2)cc1 (stereo not drawn)	5%
O=C(NCc1ccc(Cl)cc1)c1ccc2c(c1)nnn2C1CCCC1	-2%
CCOc1ccc(NS(=O)(=O)c2ccc3c(c2)NC(=O)CCS3)cc1	14%
Cc1ccc(OCC(=O)Nc2ccc(S(=O)(=O)Nc3ncccn3)cc2)c(C(C)(C)C)c1	-3%
COc1ccccc1N1CCN(C(=O)Nc2cn(CC(C)C)c(=O)c3ccccc23)CC1	-8%

Random excerpt: two entries already listed
SMILES	miR-21 reporter
COc1ccc(CCNC(=O)c2cn(C)c3ccc(S(=O)(=O)N(C)C4CCCCC4)cc3c2=O)cc1OC	-13%
COC(=O)c1cc(NC(=O)[C@H](CCS(C)(=O)=O)N2Cc3ccccc3C2=O)cc(C(=O)OC)c1	0%

Next section.
SMILES	miR-21 reporter
COc1ccc(Nc2nc3c(S(=O)(=O)c4ccc(C)cc4)nnn3c3ccsc23)cc1Cl	4%
CCC(=O)N1CCc2cc(Br)cc(S(=O)(=O)N3CCCC(C(=O)Nc4cccc(C)c4C)C3)c21 (stereo not drawn)	-2%
COc1ccc(-c2ccc3c(N)c(C(=O)Nc4cccc(C)c4)sc3n2)cc1	-13%
CCOC(=O)c1cccc(NC(=O)C2CCCN(S(=O)(=O)c3ccc4c(c3)oc(=O)n4C)C2)c1 (stereo not drawn)	18%
COc1ccc(NC(=O)C2=C(C)Nc3nc(SCc4ccccc4C)nn3C2c2cc(OC)c(O)c(OC)c2)cc1 (stereo not drawn)	-11%
Cc1ccccc1Nc1cc(C(=O)NCCc2ccc(Cl)cc2)c2ccccc2n1	28%
CCOc1ccc(C(=O)Nc2ccc3nc(SCC(=O)N4CCOCC4)sc3c2)cc1	12%
COc1ccccc1-c1nnc2n(CCc3ccccc3)c(=O)c3ccccc3n12	-1%
Cc1nc2cc(-c3ccc(Cl)cc3)nn2c(C)c1CCC(=O)N1CCN(c2ccccc2)CC1	1%
Cc1ccc2c(=O)cc(C(=O)Nc3c(C)cccc3C)oc2c1	-1%
CCCCCOC(=O)CSc1ncnc2c1sc1nc(N3CCOCC3)c3c(c12)CCCC3	-1%
Cc1ccc(NC(=O)N2CCc3cc(S(=O)(=O)N4CCC(C)CC4)ccc32)cc1	1%
CCOC(=O)c1ccc(NC(=O)c2cc3c([nH]c2=O)CC(c2ccccc2)CC3=O)cc1 (stereo not drawn)	-2%
Cc1cccc(N2CCN(c3nc4ccccc4c4nc(-c5cccnc5)nn34)CC2)c1C	1%
CCOC(=O)c1c(NC(=O)c2cc(CC)on2)sc(C)c1C	-8%
Cc1ccc(CNC(=O)CSCc2nc(-c3cccc(C)c3)oc2C)cc1	-1%
COc1ccc(OC)c(C2NC(=O)NC(C)=C2C(=O)Nc2cc(C)cc(C)c2)c1 (stereo not drawn)	2%
CCOC(=O)c1cc(C)n(CC2CCC(C(=O)Nc3cccc(C(C)=O)c3)CC2)c1C (stereo not drawn)	-1%
O=C(Nc1ccc(OC(F)(F)F)cc1)C(Cc1ccccc1)NS(=O)(=O)c1cccc2nsnc12 (stereo not drawn)	24%
CCN(CC)CCNC(=O)c1sc2nc(C)cc(C)c2c1-n1cccc1	4%
CCc1ccccc1NC(=O)Cn1nnc(C(=O)Nc2ccc(C)c(F)c2)c1N	-28%
Nc1ncc(S(=O)(=O)NCc2cccc(Cl)c2)cn1	-1%
Cn1c(=O)c2c(SCC(=O)NCc3ccco3)nc(-c3ccccc3F)nc2n(C)c1=O	-1%
Cc1ccc(/C=C(\C#N)c2nc3ccccc3c(=O)[nH]2)cc1	-15%
CCOC(=O)c1ccc(NC(=O)CSc2cn(CC(=O)N3CCCC3)c3ccccc23)cc1	7%
CC(=O)c1cc2c(cc1NC(=O)c1cnn(-c3ccc(C)cc3)c1-n1cccc1)OCO2	-2%
O=C(NCC1CCN(Cc2ccc(F)cc2)CC1)c1cc2ccc3cccnc3c2[nH]1	1%
O=C(/C=C/c1cn(CC(O)CN2CCCCCC2)c2ccccc12)c1ccccc1 (stereo not drawn)	?
CN(C)c1ccc(-n2c(CCC(=O)O)ccc2-c2ccccc2)cc1	0%
COc1ccc(N(Cc2cc3cc(OC)ccc3[nH]c2=O)C(=O)c2cccc(Cl)c2)cc1	2%
CCc1ccc(NC(=O)C(=O)NCC(c2cccnc2)N2CCOCC2)cc1 (stereo not drawn)	?
CCn1c(CNC(=O)c2ccc(OC)cc2)nnc1SCC(=O)Nc1ccc(OC)cc1	-14%
N#Cc1cccc(NC(=O)CCNS(=O)(=O)c2ccc3c(c2)CCN3C(=O)C2CC2)c1	-7%
CCOC(=O)CCc1c(C)nc2cc(-c3cc(OC)cc(OC)c3)[nH]n2c1=O	-12%
COc1ccccc1N1CCN(S(=O)(=O)c2cc(C(=O)Nc3ccc(Oc4ccccc4)cc3)ccc2F)CC1	27%
CC(C)CCN(C(=O)Nc1ccc(Cl)c(Cl)c1)C1CCN(C(C)C)CC1	-2%
CC(C)CCNC(=O)Cn1cc(S(=O)(=O)Cc2ccc(F)cc2)c2ccccc21	2%
CCOc1ccc(NC(=O)Nc2nnc(N3CCCCC3C)s2)cc1 (stereo not drawn)	17%
COC(=O)c1c(SCC(=O)Nc2cccc(Cl)c2C)[nH]c2ccccc2c1=O	7%
COCCCNC(=O)c1ccc(Cn2c(=O)c3ccccc3n(Cc3ccc(Cl)cc3)c2=O)cc1	-11%
COc1ccc(NC(=O)c2cnc3cc(C)ccn3c2=O)c(OC)c1	-8%
Cc1ccc(Cn2cc(CCC(=O)NC3CCC(C)CC3)c3ccccc32)cc1 (stereo not drawn)	-15%
COC(=O)c1c(SC)nc2ccccc2c1OCc1ccccc1C	3%
CCC(C)NC(=O)Cn1c(=O)n(CCCCCC(=O)NCc2ccccc2Cl)c(=O)c2sccc21 (stereo not drawn)	-9%
CC(=O)c1ccc(NC(=O)CCSc2nc(-c3ccco3)cc(C(F)(F)F)n2)cc1	-33%
CCCCCCSc1nc(N)c2c3c(sc2n1)CCCC3C (stereo not drawn)	-75%
CCOC(=O)c1ccc(N2C(=O)c3n[nH]c(C)c3C2c2cccc(Br)c2)cc1 (stereo not drawn)	0%
Cc1ccc(N2CC(c3nnc(NC(=O)c4ccco4)s3)CC2=O)cc1Cl (stereo not drawn)	-3%
CCOc1ccc2oc(=O)cc(CN3CCN(c4ccccc4)CC3)c2c1	3%
Cc1ccc(Cl)cc1NC(=O)c1oc2ccc(S(=O)(=O)N(C)C3CCCCC3)cc2c1C	-1%
CCOC(=O)c1cccc(NC(=O)CCn2nc(C)c3c(C)n(-c4ccccc4)nc3c2=O)c1	-5%
Cc1ccc2c(CNCC(C)c3ccccc3)c(C(=O)O)n(Cc3ccccc3C)c2c1 (stereo not drawn)	1%
CCOC(=O)c1cccc(NC(=O)Cn2cnc3nc4c(cc3c2=O)CCCC4)c1	0%
CCc1ccc(-n2nc(C)c3c(C)cc(=O)n(CC(=O)Nc4ccc(C)c(F)c4)c32)cc1	8%
Cc1ccc(Nc2c(-c3ccncc3)nc3ccc(C)cn23)cc1	-8%
Cc1ccc2nc(N(Cc3cccnc3)C(=O)CCOc3ccccc3)sc2c1	-5%
O=C(C1CCC(CNS(=O)(=O)c2ccc(Br)s2)CC1)N1CCN(c2ccc(F)cc2)CC1 (stereo not drawn)	12%
CCCCN(CC)CCNC(=O)Cn1c(=O)c2cccn2c2cccnc21	0%
COc1ccc(CNC(=O)c2cc3cccc4c3n2CC(C)S4)c(OC)c1 (stereo not drawn)	1%
CCc1ccc(Nc2nc3c(S(=O)(=O)c4ccc(C)cc4)nnn3c3ccsc23)cc1	10%
(more compounds)
SMILES	miR-21 reporter
CCOc1ccccc1NC(=O)CC1C(=O)NCCN1C(=O)c1ccc(F)cc1 (stereo not drawn)	-7%
NC(=O)CSc1nc2ccc(NC(=O)COc3ccccc3)cc2s1	-44%
CCOc1ccc(NC(=O)C2CCCN(c3nn4cc(-c5ccc(OC)cc5)nc4s3)C2)cc1 (stereo not drawn)	24%
O=C(Nc1cccc(Cl)c1)C1CCCN(c2nn3cc(-c4ccc(F)cc4)nc3s2)C1 (stereo not drawn)	25%
Cc1cc(SCC(=O)Nc2ccc(Cl)cc2)nc2ccccc12	-1%
O=C(c1ccc2c(c1)N(Cc1cccc(Cl)c1)C(=O)c1ccccc1S2(=O)=O)N1CCN(c2cccc(C(F)(F)F)c2)CC1	5%
Cc1ccccc1OCC(=O)NCC(c1ccc(Cl)cc1)N1CCOCC1 (stereo not drawn)	11%
COc1ccc(Cn2c(=O)c3oc4ccccc4c3n(Cc3ccccc3)c2=O)cc1	-1%
Cc1ccc(Cl)cc1NC(=O)CN(C)S(=O)(=O)c1ccc2c(c1)n(C)c(=O)c(=O)n2C	2%
COc1ccc(C(=O)Nc2nnc(S(=O)(=O)N(CC(C)C)c3ccccc3)s2)cc1	-51%
COCCNC(=O)c1[nH]c2cc(C)ccc2c1Sc1ccc(Cl)cc1	-4%
CCC(=O)N1CCc2cc(Br)cc(S(=O)(=O)CCC(=O)N3CCN(c4ccc(F)cc4)CC3)c21	15%
COc1cn(CC(=O)Nc2ccc(C)cc2)c(CN2CCCCC2)cc1=O	-1%
Cc1ccc(Cn2cnc3nc4c(cc3c2=O)CCCC4)cc1	-63%
COc1ccc2cc(CNc3ccc(C)cc3)c(=O)n(CC(=O)Nc3ccc(OC)c(Cl)c3)c2c1	-6%
COc1ccc(CNC(=O)c2cc3c(=O)n(C)c4ccccc4c3n2C)cc1	-1%
CCN(CC)CCNC(=O)c1c(C)oc2ncn(C)c(=O)c12	-4%
COCCCN1C(=O)c2[nH]nc(-c3cc(C)ccc3O)c2C1c1ccc(F)cc1 (stereo not drawn)	20%
COc1ccc(OC)c(CCNC(=O)c2c(C)oc3ncn(CC(C)C)c(=O)c23)c1	0%
CCCCOC(=O)c1ccc(NC(=O)CSc2nc3c(c(=O)[nH]2)CCC3)cc1	21%
CC(C)c1nn2c(=O)cc(COC(=O)c3cccc(NC(=O)c4ccccc4F)c3)nc2s1	1%
CCOc1ccc(Nc2sc(C(=O)c3ccc(F)cc3)c(N)c2S(=O)(=O)c2ccc(C)cc2)cc1	9%
CCOc1ccc(-n2c(=O)c3c(C)c(C)sc3n(CC(=O)C(C)(C)C)c2=O)cc1	-5%
CCOC(=O)c1c(N)n(-c2cccc(OC)c2)c2nc3ccccc3nc12	-1%
CCOC(=O)c1cccc(NC(=O)c2cc(CN3CCOCC3)on2)c1	-27%
Cc1ccc(C)c(N2CCN(C(=O)CCn3c(=O)c4cccn4c4cccnc43)CC2)c1	-13%
CCOc1ccc(-c2cc3c(=O)n(CC(=O)NCc4ccc(OC)cc4)ccn3n2)cc1	-45%
COC(=O)c1ccccc1NC(=O)c1noc2c1CSc1ccccc1-2	-3%
COc1ccc(Cn2ccc3nc(C)c(C(=O)NCc4ccc(F)cc4)cc3c2=O)cc1	20%
CCOc1ccc(NC(=O)c2nn(C)c3c2CS(=O)(=O)c2ccccc2-3)cc1	-1%
CCOC(=O)c1[nH]c(C)c(C(=O)NCc2ccccc2Cl)c1C	-9%
COc1ccc(-c2c(C)c3ccc(O)c(CN4CCCC(C)C4)c3oc2=O)cc1OC (stereo not drawn)	-9%
Cc1ccc(N2C(=O)CC(c3ccccc3F)C3=C2COC3=O)cc1Cl (stereo not drawn)	-6%

Structural class: those above with a thiophene ring, fused or not.
SMILES	miR-21 reporter
CCOc1ccc(NC(=O)c2ccc(-c3ccccc3)s2)cc1	-20%
COc1ccc(Nc2nc3c(S(=O)(=O)c4ccc(C)cc4)nnn3c3ccsc23)cc1Cl	4%
COc1ccc(-c2ccc3c(N)c(C(=O)Nc4cccc(C)c4)sc3n2)cc1	-13%
CCCCCOC(=O)CSc1ncnc2c1sc1nc(N3CCOCC3)c3c(c12)CCCC3	-1%
CCOC(=O)c1c(NC(=O)c2cc(CC)on2)sc(C)c1C	-8%
CCN(CC)CCNC(=O)c1sc2nc(C)cc(C)c2c1-n1cccc1	4%
CCC(C)NC(=O)Cn1c(=O)n(CCCCCC(=O)NCc2ccccc2Cl)c(=O)c2sccc21 (stereo not drawn)	-9%
CCCCCCSc1nc(N)c2c3c(sc2n1)CCCC3C (stereo not drawn)	-75%
O=C(C1CCC(CNS(=O)(=O)c2ccc(Br)s2)CC1)N1CCN(c2ccc(F)cc2)CC1 (stereo not drawn)	12%
CCc1ccc(Nc2nc3c(S(=O)(=O)c4ccc(C)cc4)nnn3c3ccsc23)cc1	10%
CCOc1ccc(Nc2sc(C(=O)c3ccc(F)cc3)c(N)c2S(=O)(=O)c2ccc(C)cc2)cc1	9%
CCOc1ccc(-n2c(=O)c3c(C)c(C)sc3n(CC(=O)C(C)(C)C)c2=O)cc1	-5%

Three successive records out of the list so far, quoted:
SMILES	miR-21 reporter
Cc1ccc(Cl)cc1NC(=O)c1oc2ccc(S(=O)(=O)N(C)C3CCCCC3)cc2c1C	-1%
CCOC(=O)c1cccc(NC(=O)CCn2nc(C)c3c(C)n(-c4ccccc4)nc3c2=O)c1	-5%
Cc1ccc2c(CNCC(C)c3ccccc3)c(C(=O)O)n(Cc3ccccc3C)c2c1 (stereo not drawn)	1%

An excerpt; rates above refer to the full screens.
